From PubChem
FPRL1 binder = ligands of human FPRL1, also counter-screen for FPR ligands. P25090. FPRL1-expressing cells, fluorescent ligand binding inhibition, flow cytometry. inhibition, %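 (tested at 6.7 µM)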. 24,000 compounds, 0.3% hits;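 further: 0% = buffer alone and 100% = receptor blocker peptide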
Target sequence (P25090 whole entry, looked up): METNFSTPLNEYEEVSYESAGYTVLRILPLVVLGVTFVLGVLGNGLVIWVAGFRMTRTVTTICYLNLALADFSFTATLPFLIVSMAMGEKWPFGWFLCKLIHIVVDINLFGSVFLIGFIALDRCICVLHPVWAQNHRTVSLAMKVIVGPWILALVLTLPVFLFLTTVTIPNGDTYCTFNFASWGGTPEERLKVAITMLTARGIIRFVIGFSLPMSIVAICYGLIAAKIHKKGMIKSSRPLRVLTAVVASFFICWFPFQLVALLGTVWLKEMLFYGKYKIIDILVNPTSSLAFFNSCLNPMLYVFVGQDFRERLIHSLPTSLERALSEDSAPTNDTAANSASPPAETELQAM
VCAM-1 imaging = suppression of endothelial VCAM-1 upregulation – imaging, high-content imaging, pooled HUVEC, TNFa stimulus (AID 456); 10,000 compounds, 0.2% hits; inhibition, % at 5 µM, or IC50 in µM where a hit was titrated; HUVEC TNFa-induced VCAM-1 surface expression, immunofluorescence imaging; numbers were filed only for top-ranked candidate wells;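 active means top tenth filtered wells with inhibition above zero that passed visual or statistical confirmation; inactive means the rest, including hits rejected on review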;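 further: 0% = stimulated vehicle wells and 100% = unstimulated cells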
VCAM-1 up imaging = enhancers of VCAM-1 display on endothelial cells, imaging, high-content imaging, pooled HUVEC, TNFa stimulus (AID 457); Pooled HUVEC, TNFa-induced VCAM-1 immunofluorescence imaging; hits of this screen are not shown here; calls only; 10,000 compounds, 0.2% hits;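 active means a top-ranked rise in VCAM-1 staining upheld on image or statistical review; inactive means the rest, including candidates rejected on review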;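 further: compounds tested at 5 µM in the well; cells exposed to compound for 24 hours before fixing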
VCAM-1 down = suppression of endothelial VCAM-1 upregulation – cell-based, plate reader, pooled HUVEC, TNFa stimulus (AID 454); HUVEC TNFa-induced VCAM-1 surface immunofluorescence, plate reader; numbers were filed only for top-ranked candidate wells; inhibition, % at 5 µM; 10,000 compounds, 0.2% hits;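 active means compound among top-ranked inhibitors of TNF-induced VCAM-1 adhesion protein staining, with the hit upheld by image or statistical review; inactive means the rest, including hits rejected on review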;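 further: 0% = TNFa with vehicle and 100% = cells without TNFa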
FPR binder = binds the human formylpeptide receptor FPR | P21462 | FPR-expressing cells, fluorescent ligand binding, flow cytometry | inhibition, %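 (tested at 6.7 µM)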 | 24,000 compounds, 0.74% hits;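 further: 0% = buffer wells and 100% = receptor blocker peptide wells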
Target sequence (P21462 whole entry, looked up): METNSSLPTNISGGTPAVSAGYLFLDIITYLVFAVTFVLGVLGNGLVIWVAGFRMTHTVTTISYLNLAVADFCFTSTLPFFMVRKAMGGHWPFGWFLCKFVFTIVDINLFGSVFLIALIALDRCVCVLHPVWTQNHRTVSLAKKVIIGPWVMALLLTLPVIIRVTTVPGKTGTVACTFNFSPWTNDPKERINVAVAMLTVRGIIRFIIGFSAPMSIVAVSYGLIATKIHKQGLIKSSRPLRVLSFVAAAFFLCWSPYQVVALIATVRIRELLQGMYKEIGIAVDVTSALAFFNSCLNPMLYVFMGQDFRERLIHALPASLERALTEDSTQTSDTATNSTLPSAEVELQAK
* = called active by the depositor; i = inactive; nt = not tested or not shown.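 How the source made its calls, unless noted: active means mean above 30%; inconclusive means self-fluorescent; inactive means the rest.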

SMILES	FPRL1 binder	VCAM-1 imaging	VCAM-1 up imaging	VCAM-1 down	FPR binder
CC1CCC(C(=O)NC(C(=O)N2CCC3(CC2)OCCO3)C(C)C)CC1 (stereo not given)	4.0	i	i	i	-3.8
O=C(c1sc2ccccc2c1Cl)N1CCC2(CC1)OCCO2	-1.2	i	i	i	-8.1
O=C1C2CCCN2C(c2cccnc2)N1c1ccc(Cl)cc1 (stereo not given)	-1.9	nt	nt	nt	-4.4
Cc1ccc(OCC(=O)NCCN2CCN(C(=O)COc3ccc(C)cc3)CC2)cc1	-0.5	i	i	i	-3.6
COc1cc2c(cc1OC)C(C(=O)N1CCC3(CC1)OCCO3)C(c1ccccc1F)N(C)C2=O (stereo not given)	-20.3	nt	nt	nt	-6.5
CC(=O)C1C2c3ccccc3OC1(C)N=c1s/c(=C/c3cn(C)nc3C)c(=O)n12 (stereo not given)	-1.2	nt	nt	nt	7.2
CCc1nnc(NC(=O)CCc2nc(C3=CCN(C)CC3)no2)s1	-0.2	nt	nt	nt	1.9
c1ccc(C2NCc3ccccc3-n3cccc32)cc1 (stereo not given)	-1.0	i	i	i	-4.3
Cc1cc(N2C(=O)C3CCCN3C2c2ccc(Cl)c(Cl)c2)no1 (stereo not given)	-13.4	nt	nt	nt	1.1
COc1ccc(CN2CCN(c3ccccc3F)CC2)c(OC)c1	-2.0	i	i	i	2.9
CCOC(=O)C(O)(c1ccc(N(CC)S(=O)(=O)c2ccccc2)cc1)C(F)(F)F (stereo not given)	3.8	nt	nt	nt	-3.9
CNP1(NC)=NC(C(F)(F)F)=NC(C(F)(F)F)=N1	-2.1	i	i	i	1.3
Cn1c2ccccc2c2c(C(=O)N3CCC4(CC3)OCCO4)cn(C3CCCC3)c(=O)c21	0.4	nt	nt	nt	6.3
CCC(=O)N1CC(=O)Nc2ccc(Cl)cc2C1c1ccc(F)cc1 (stereo not given)	3.6	nt	nt	nt	3.1
OCCOCC#CCN1CCOCC1	-0.1	i	i	i	6.7

Taken from above:
Result of `COc1ccc(CN2CCN(c3ccccc3F)CC2)c(OC)c1` under FPR binder: 2.9
Result of `O=C(c1sc2ccccc2c1Cl)N1CCC2(CC1)OCCO2` under FPRL1 binder: -1.2

Back to the main list; the 5 compounds before the break are reprinted first.
SMILES	FPRL1 binder	VCAM-1 imaging	VCAM-1 up imaging	VCAM-1 down	FPR binder
CCOC(=O)C(O)(c1ccc(N(CC)S(=O)(=O)c2ccccc2)cc1)C(F)(F)F (stereo not given)	3.8	nt	nt	nt	-3.9
CNP1(NC)=NC(C(F)(F)F)=NC(C(F)(F)F)=N1	-2.1	i	i	i	1.3
Cn1c2ccccc2c2c(C(=O)N3CCC4(CC3)OCCO4)cn(C3CCCC3)c(=O)c21	0.4	nt	nt	nt	6.3
CCC(=O)N1CC(=O)Nc2ccc(Cl)cc2C1c1ccc(F)cc1 (stereo not given)	3.6	nt	nt	nt	3.1
OCCOCC#CCN1CCOCC1	-0.1	i	i	i	6.7
CC(NC(C)(C)C)C(=O)c1cccc(Cl)c1 (stereo not given)	-2.6	i	i	i	-4.5
Cc1ccc(C(=O)C2CN3CCC2CC3)cc1 (stereo not given)	-2.4	i	i	i	1.8
O=C(NCC(c1cccnc1)N1CCN(c2ccc(F)cc2)CC1)Oc1ccccc1 (stereo not given)	-4.8	nt	nt	nt	1.2
O=c1[nH]c(=O)n(-c2ccc(F)cc2)c(O)c1C=Nc1ccccc1N1CCCC1	2.7	i	i	i	2.5
c1ccc(Cn2ccnc2)cc1	3.9	i	i	i	4.1
COc1cccc(Oc2c(C)oc3cc(OC(=O)N(C)C)ccc3c2=O)c1	-2.9	nt	nt	nt	-15.6
CC(Oc1ccc(-c2ccccc2)cc1)C(=O)O (stereo not given)	-3.2	nt	nt	nt	1.0
CCn1nc(-c2ccccc2)nc2c(=O)n(C)c(=O)nc1-2	11.4	i	i	i	1.3
Cc1ccc2c(c1)[C@@H]1CN(C)CC[C@@H]1N2C(=O)Nc1cccc(C(F)(F)F)c1	-1.6	i	i	i	0.5
Cc1cc(N2C(=O)C3CCCN3C2c2ccccc2)no1 (stereo not given)	-5.8	nt	nt	nt	2.8
COC(=O)C1C2c3ccccc3OC1(C)N=c1s/c(=C/c3cnn(C)c3C)c(=O)n12 (stereo not given)	-0.2	i	i	i	-2.4
COc1ccc(C2C(C(=O)N3CCC4(CC3)OCCO4)c3cc(OC)c(OC)cc3C(=O)N2C)cc1 (stereo not given)	3.8	nt	nt	nt	4.8
Cc1cccn2c(=O)c3cc(C(=O)N4CCC5(CC4)OCCO5)n(C)c3nc12	-3.3	nt	nt	nt	5.9
Cc1nc2nc(C)c(CCC(=O)N3CCC4(CC3)OCCO4)c(C)n2n1	-3.0	nt	nt	nt	-11.2
COc1ccc(C(=O)C(C)(C)NO)cc1	-2.2	i	i	i	-1.2
Cc1[nH]c2ccccc2c1C1=CCNCC1	-10.1	nt	nt	nt	-15.9
Cc1ccc(S(=O)(=O)NCC2CCC(C(=O)N3CCC4(CC3)OCCO4)CC2)cc1 (stereo not given)	0.1	nt	nt	nt	-0.7
CCOP1(=S)Oc2cc3c(cc2C(C(=O)OC)(C(F)(F)F)O1)OCO3 (stereo not given)	4.3	nt	nt	nt	-5.8
C[N+]1(C)CCN(c2ccccc2)CC1	-4.6	i	i	i	7.3
CCCCn1c(O)c(C(CC)=Nc2cccc(C(=O)O)c2)c(=O)[nH]c1=O	4.3	i	i	i	7.7
Cc1ccccc1NC1=NCCCS1	-4.0	i	i	i	0.7
COC(=O)C1C2c3ccccc3OC1(C)N=c1s/c(=C/c3cnn(C)c3)c(=O)n12 (stereo not given)	-1.0	nt	nt	nt	-2.4
CC1(C)CC(=O)C=C(NCCN2CCN(C(=O)Cc3ccc(Cl)cc3)CC2)C1	0.2	i	i	i	-12.4
C=CCN1C(=O)C2(C(C(=O)OCC)=C(N)Oc3c2c(=O)oc2ccccc32)c2ccccc21 (stereo not given)	1.3	i	i	i	-0.9
CCCS(=O)(=O)N1CCCC(C(=O)N2CCC3(CC2)OCCO3)C1 (stereo not given)	-6.4	nt	nt	nt	4.6
Cc1ccc(C2SCC(=O)Nc3c2c(=O)[nH]n3C2CCOC(C)(C)C2)cc1 (stereo not given)	-1.8	i	i	i	0.8
CNCCc1c[nH]c2ccccc12	5.3	i	i	i	2.9
Cc1nc2cc(-c3ccccc3)nn2c(C)c1CCC(=O)N1CCC2(CC1)OCCO2	5.2	nt	nt	nt	-3.5
COc1cccc(-c2nc(CS(=O)CC(=O)N3CCC4(CC3)OCCO4)c(C)o2)c1 (stereo not given)	-5.8	nt	nt	nt	7.0
COc1ccccc1N(CC(=O)NC1CCCCC1)C(=O)c1cnn(C(C)C)c1	1.2	i	i	i	-3.0
O=C(C1CCN(c2nc3ccc(Br)cc3s2)CC1)N1CCC2(CC1)OCCO2	-20.1	nt	nt	nt	-1.3
Cc1ccc(C)c(NC(=O)CSc2nnc([C@@H](N)Cc3c[nH]c4ccccc34)o2)c1	-1.7	i	i	i	-8.0
Cn1ncnc2c(=O)n(C)c(=O)nc1-2	18.7	nt	nt	nt	-3.5
Cc1c(C(=O)N2CCC3(CC2)OCCO3)sc2ncnc(N3CCN(c4ccccn4)CC3)c12	0.2	nt	nt	nt	3.7
Cc1nc2c(-c3ccc(F)cc3)c(C)nn2c(C)c1CCC(=O)N1CCC2(CC1)OCCO2	-4.9	nt	nt	nt	14.5
Cc1c2cnn(CC(=O)N3CCC4(CC3)OCCO4)c(=O)c2c(C)n1Cc1ccccc1	-2.8	nt	nt	nt	-1.4
CCC(=NCCCN1CCOCC1)c1c(O)n(Cc2ccccc2)c(=O)[nH]c1=O	1.6	i	i	i	0.1
CCOC(=O)C1=C(C)N(C)C2(C)CC1c1ccccc1O2 (stereo not given)	4.3	nt	nt	nt	-0.3
O=C(C1CCC(=O)N1C1CCCCC1)N1CCC2(CC1)OCCO2 (stereo not given)	3.5	nt	nt	nt	-6.5
Oc1ccc(C2NCc3ccccc3-n3cccc32)cc1Cl (stereo not given)	-3.1	i	i	i	-3.9
Cn1c(=O)n(CC(=O)N2CCC3(CC2)OCCO3)c(=O)c2ccccc21	0.1	nt	nt	nt	-3.3
Cn1cc(C(=O)N2CCC3(CC2)OCCO3)c2c3ccccc3n(C)c2c1=O	-0.1	nt	nt	nt	-3.2
O=C(C1CCN(S(=O)(=O)N2CCOCC2)CC1)N1CCC2(CC1)OCCO2	4.7	nt	nt	nt	-1.8
O=c1[nH]c(=O)n(CCc2ccc(F)cc2)c(O)c1C=NCCCn1ccnc1	-0.3	i	i	i	-4.1
CC1=C(C(=O)OC(C)C)[C@]2(C(=O)N(CC(N)=O)c3ccccc32)C(C#N)=C(N)O1	50.3*	i	i	i	24.5
C=C1CC[C@@]2(O)[C@H]3Cc4ccc(O)c5c4[C@@]2(CCN3CC2CC2)[C@H]1O5	3.5	i	i	i	-3.8
COc1ccccc1N1CCN(C(CNC(=O)Oc2ccccc2)c2cccnc2)CC1 (stereo not given)	-7.8	nt	nt	nt	-5.8
Cn1c(C(=O)N2CCC3(CC2)OCCO3)cc2c(=O)n(C)c3ccccc3c21	-0.5	i	i	i	-4.1
CC(=O)[C@H]1CC[C@H]2[C@@H]3CC[C@H]4C[C@H](O)CC[C@]4(C)[C@H]3C(=O)C[C@]12C	3.2	i	i	i	4.7
Cc1cc(N2CCOCC2)nc2ccc(NC(=O)CCC(=O)N3CCC4(CC3)OCCO4)cc12	1.0	nt	nt	nt	-5.2
O=C(CCCC1=NS(=O)(=O)c2ccccc2N1)N1CCC2(CC1)OCCO2	2.1	nt	nt	nt	3.3
CCCCn1c(O)c(C(C)=Nc2cccc(C(=O)O)c2)c(=O)[nH]c1=O	-2.6	i	i	i	-6.5
O=C(O)c1nonc1-c1nonc1C(=O)O	-0.9	i	i	i	3.7
CCCS(=O)(=O)N1CCC(C(=O)N2CCC3(CC2)OCCO3)CC1	-0.5	nt	nt	nt	-6.3
CC#CP(=O)(OCC)C(O)(c1ccccc1)C(F)(F)F (stereo not given)	-4.3	i	i	i	-3.9
Cn1c(C(=O)N2CCC(C(=O)N3CCC4(CC3)OCCO4)CC2)cc2sccc21	-2.3	nt	nt	nt	-2.9
NCCc1ccc(O)cc1	-3.3	i	i	i	2.2
c1ccc2c(c1)OCC(C1=NCCN1)O2 (stereo not given)	1.1	i	i	i	-5.2
c1cncc(CNC2=NCCCCC2)c1	5.7	i	i	i	-6.3
CCOC(=O)C1CN(C)CCC1=O (stereo not given)	1.0	nt	nt	nt	4.0
Later entries
SMILES	FPRL1 binder	VCAM-1 imaging	VCAM-1 up imaging	VCAM-1 down	FPR binder
O=C(COc1ccc2ccccc2c1)N1CCN(C2CCN(Cc3ccccc3)CC2)CC1	-8.0	i	i	i	-6.0
COc1ccc(CCn2c(O)c(C=NCc3cccnc3)c(=O)[nH]c2=O)cc1OC	-2.0	i	i	i	-4.3
O=C(c1ccncc1)C12CN3CN(CN(C3)C1)C2	-1.0	i	i	i	0.6
COCCOC(=O)C1=C(C)OC(N)=C(C(=O)OC)C12C(=O)Nc1ccccc12 (stereo not given)	-2.9	nt	nt	nt	0.5
Cc1ccc2cc3cc(C(=O)N4CCC5(CC4)OCCO5)oc3nc2c1	4.0	nt	nt	nt	-2.0
Cc1ccccc1-n1c(O)c(C=NCCN2CCOCC2)c(=O)[nH]c1=O	2.6	i	i	i	-5.4
CN(C)CCN=Cc1c(O)n(-c2cccc3ccccc23)c(=O)[nH]c1=O	0.7	i	i	i	6.6
Cc1nc2c(-c3ccccc3)c(C)nn2c(C)c1CCC(=O)N1CCC2(CC1)OCCO2	-18.8	nt	nt	nt	-16.1
CC1=C(C(=O)N2CCC3(CC2)OCCO3)C2(CCC(C)CC2)OC1=O (stereo not given)	-0.3	i	i	i	2.7
CP(C)(=O)CCC(=O)O	-0.8	i	i	i	-1.4
Cc1ccc(-n2c(O)c(C=NCCN3CCOCC3)c(=O)[nH]c2=O)cc1	-2.6	i	i	i	-1.5
CC(C)[C@@]1(NC(=O)[C@@H]2C[C@@H]3c4cccc5[nH]cc(c45)C[C@H]3N(C)C2)O[C@@]2(O)[C@@H]3CCCN3C(=O)[C@H](Cc3ccccc3)N2C1=O	-0.3	i	i	i	-2.3
Cc1ccc(Cl)cc1N1CCN(CCN)CC1	-15.3	nt	nt	nt	-11.1
CC(=NCc1cccnc1)c1c(O)n(Cc2ccccc2)c(=O)[nH]c1=O	-0.9	i	i	i	1.1
CCn1c(C)c(C(=O)O)c2cc(OC)ccc21	0.8	i	i	i	-2.5
Cc1nc2c(c(C)nn2-c2ccccc2)c(C)c1CCC(=O)N1CCC2(CC1)OCCO2	-7.3	nt	nt	nt	-2.3
CC1(C)C(c2ccccc2)=NC(c2cccnc2)N1O (stereo not given)	5.0	i	i	i	0.9

These rows are one share of the data (hit frequency here may not be typical).
